2A firefly – lowers the firefly signal of an FMDV 2A StopGo reporter | actives 0.23% (n = 120,000) | HEK cells with a luciferase reporter of 2A StopGo recoding | AID 1745856 | Potency, µM (highest dose often 57.5 µM), for inactives: top-dose signal change, negative = less light; active = well fitted falling curve with a large enough effect; inconclusive = small, poorly fitted or top-dose-only effect; inactive = no such curve, though single readings can be large or run the other way; note: nearly all actives have a fitted effect of over 60% in size; overnight with compound
2A Renilla – lowers the Renilla signal of an FMDV 2A StopGo reporter. Potency, µM (doses to about 57.5 µM), for inactives: at the top dose signal change, negative = less light. AID 1745857. actives 0.32% (n = 120,000). HEK cells with a luciferase reporter of 2A StopGo recoding; active means well fitted falling curve with a large enough effect; inconclusive means small, poorly fitted or top-dose-only effect; inactive means no such curve, though single readings can be large or run the other way; note: nearly all actives have a fitted effect of over 55% in size; overnight with compound
* hit, by the source's call; u = inconclusive; [ ] = another dose, or the depositor's remark. % is set by controls: 0 for no effect and ±100 for the full control effect; potency is the fitted concentration of half-maximal effect.

1	NC(=O)c1cc(S(=O)(=O)NCC2CCN(Cc3ccc(Cl)cc3)CC2)cs1
2	CCCN1CCN(CCNC(=O)Nc2ccc(OC)c(OC)c2)CC1
3	Cc1ccc(C(c2c[nH]c3ccccc23)N(C)C(=O)C(C)C)cc1 (stereo not given)
4	Cc1ccc(CNS(=O)(=O)c2ccc(N3C(=O)C(C)CS3(=O)=O)cc2)cc1 (stereo not given)
5	O=C(Cc1ccccc1F)N(Cc1ccco1)C1CC1
6	O=c1[nH]c(N2CCOCC2)nc2nccc(-c3ccsc3)c12
7	COC(=O)C1CN(C2CCCC2)CCS(=O)(=O)N1Cc1ccc(OC)cc1 (stereo not given)
8	O/N=c1/oc2cc3occ(-c4ccc(F)cc4)c3cc2c2c1CCC2

screen / no.	1	2	3	4	5	6	7	8
2A firefly	9.3%	-11.0%	-7.3%	21.1%	4.8%	97.0%[activator]	6.6%	15.3%
2A Renilla	0.5%	-10.6%	5.6%	24.1%	22.9%	39.3%[activator]	0.0%	7.9%

9	O=C(Nc1cccc(C(F)(F)F)c1)C1CCCN(S(=O)(=O)c2cccc3nsnc23)C1 (stereo not given)
10	CC(C)=CCN1CCN(CCO)CC1
11	COc1cc(OC)cc(C(=O)Oc2ccc(-c3ccccc3)cc2)c1
12	Cc1ccc(Cn2c(C(=O)Nc3ccc(Cl)cc3)cc3sccc32)cc1
13	CCCCN(C)CC(O)Cn1cc(/C=C/C(=O)c2ccc(OC)c(OC)c2)c2ccccc21 (stereo not given)
14	Cc1ccc(CNc2oc(-c3ccc(S(=O)(=O)N(C)C)cc3)nc2C#N)cc1
15	C=C(C)c1cccc(C(C)(C)NC(=O)NC(CC)CO)c1 (stereo not given)
16	Cc1ccc(-c2csc(N)c2C#N)c(C)c1

screen / no.	9	10	11	12	13	14	15	16
2A firefly	9.4%	16.1%	0.0%	64.8%[activator]	-0.3%	2.8%	0.7%	47.5%[activator]
2A Renilla	-4.7%	3.2%	16.5%	22.4%	-7.6%	7.2%	-4.1%	3.3%

17	Cc1cc(-n2c(C)nc3ccccc3c2=O)ccc1NC(=O)c1ccc(C)c([N+](=O)[O-])c1
18	O=C(CSc1nnc2ccccn12)N1CCN(Cc2ccccc2)CC1
19	CCc1nc(CN(CC)Cc2cccs2)cs1
20	Cc1nn(CC(=O)NCc2ccco2)c(=O)c2cc3ccccc3n12
21	COc1cc2nc(SCC(=O)Nc3ccccc3F)n3nc(-c4ccccc4)nc3c2cc1OC
22	COC(=O)Cn1nc(-c2ccccc2)c2ccccc2c1=O
23	CN(Cc1ccc(C(=O)NCC(F)(F)F)cc1)C(=O)/C=C/c1ccccc1
24	Cn1c(C(=O)Nc2cccc(Cl)c2)cc2c(=O)n(C)c3ccccc3c21

screen / no.	17	18	19	20	21	22	23	24
2A firefly	0.0%	48.5%[activator]	-4.7%	-12.8%	u	3.5%	0.0%	-26.8%
2A Renilla	-4.3%	-5.7%	-0.2%	4.7%	-27.4%	-4.3%	12.7%	-12.7%

25	N#C/C(=C\c1ccc(OCc2cccc(C(=O)O)c2)cc1)C(=O)N1CCOCC1
26	COc1ccc(OC)c(C2=NS(=O)(=O)N(C)C(C(=O)Nc3ccc(C(C)=O)cc3)=C2)c1
27	CN1CCN(c2ccc([N+](=O)[O-])c(-n3nc(-c4ccc(Cl)cc4)c4ccccc4c3=O)c2)CC1
28	CCCCn1c(=O)n(CC(=O)Nc2ccc(C)cc2)c(=O)c2c1ncn2Cc1ccco1
29	Fc1cccc(/C=C/c2nc3cc(-c4ccccc4)ccc3o2)c1
30	COc1ccc(CNC(=O)c2cc(C)nc3c2c(C)nn3-c2cccc(Cl)c2C)cc1
31	CCOc1ccc(C2CCCN2C(=O)c2ccc(-n3cccn3)cc2)cc1 (stereo not given)
32	Cc1ccc2c(c1)c1c(c(=O)n(-c3ccccc3)c(=O)n1CC(=O)c1ccc(F)cc1)n2C

screen / no.	25	26	27	28	29	30	31	32
2A firefly	-100.2%	-8.7%	-20.7%	-10.3%	0.0%	-9.8%	6.6%	-4.6%
2A Renilla	2.3%	15.5%	-13.3%	-9.2%	-4.0%	-13.6%	67.7%[activator]	-2.7%

Compounds above that have a cyano group:
14	Cc1ccc(CNc2oc(-c3ccc(S(=O)(=O)N(C)C)cc3)nc2C#N)cc1
16	Cc1ccc(-c2csc(N)c2C#N)c(C)c1
25	N#C/C(=C\c1ccc(OCc2cccc(C(=O)O)c2)cc1)C(=O)N1CCOCC1

screen / no.	14	16	25
2A firefly	2.8%	47.5%[activator]	-100.2%
2A Renilla	7.2%	3.3%	2.3%

The results go on:
33	COc1ccc(CNC(=O)CC(c2ccc(OC)cc2)N2Cc3ccccc3C2=O)cc1 (stereo not given)
34	CCc1nnc(SCC(=O)Nc2ccc(F)cc2F)c2cc3sc(C)cc3n12
35	COc1ccc(NCc2cc3cc4c(cc3n(CC(=O)Nc3cccc(F)c3)c2=O)OCO4)cc1
36	O=[N+]([O-])c1ccc(/C=N/c2nc3c(s2)CCCC3)cc1
37	CCn1nc(C(=O)NCCc2ccc(S(N)(=O)=O)cc2)c2ccccc2c1=O
38	CC(C)(C)N1Cc2nnn(Cc3ccccc3)c2-c2ccccc2S1(=O)=O
39	Cc1ccc(S(=O)(=O)CCC(=O)Oc2ccc(C(C)C)cc2)cc1
40	COC(=O)c1cccc(NC(=O)c2ccc3c(c2)CC(c2ccc(F)cc2)OC3=O)c1 (stereo not given)

screen / no.	33	34	35	36	37	38	39	40
2A firefly	-16.0%	-1.2%	-13.1%	0.0%	18.0%	4.6%	2.9%	-0.5%
2A Renilla	119.6%[activator]	-7.9%	-0.8%	14.2%	7.2%	165.1%[activator]	-12.8%[1.06 µM]	-7.3%

41	O=C(O)CCc1ccc(S(=O)(=O)Nc2ccccc2C(=O)Nc2ccccc2)cc1
42	Cc1ccc(NC(=O)Cc2n[nH]c(=O)c3ccccc23)cc1C
43	O=S(Cc1ccc(Cl)cc1)Cc1c(Cl)cccc1Cl (stereo not given)
44	Cc1c(-c2ccccc2)nc2c(C)cc(Br)cc2c1C(=O)NC1CCCCC1
45	C/C(=N\Nc1ccc([N+](=O)[O-])cc1)c1ccc(C)cc1C
46	CCN1C(=O)C(=O)N(Cc2coc(-c3ccc(C)cc3)n2)C1=O
47	COc1ccccc1OCCn1c(-c2ccc(Cl)cc2)nc2ccccc2c1=O
48	Cc1ccc(NC(=O)c2nn(CC(C)C)c(=O)c3ccccc23)cc1S(=O)(=O)N1CCOCC1

screen / no.	41	42	43	44	45	46	47	48
2A firefly	21.3%	13.2%	u	5.0%	111.3%[activator]	0.0%	-24.5%	14.8%
2A Renilla	5.5%	-1.7%	u	17.8%	-15.2%	19.6%	-21.2%	32.9%[activator]

Single records, from the list above.
Cc1c(-c2ccccc2)nc2c(C)cc(Br)cc2c1C(=O)NC1CCCCC1 in the list: 2A firefly = 5.0%; 2A Renilla = 17.8%
O=S(Cc1ccc(Cl)cc1)Cc1c(Cl)cccc1Cl (stereo not given) in the list: 2A firefly = u; 2A Renilla = u

Copied from the list.
Entry for no. 2 under 2A firefly: -11.0%
Entry for no. 29 under 2A firefly: 0.0%

Next records
49	CC(C)CCOc1ccccc1Cn1c(=O)sc2ccccc21
50	O=C(Nc1ccccc1O)c1cc(S(=O)(=O)N2CCCC2)ccc1Cl
51	COc1ccc(Cn2c(CO)cnc2SCc2ccc(C)cc2)cc1
52	Cn1c(=O)[nH]c(=O)c2c1nc(Cl)n2Cc1ccccc1
53	COc1cccc(Cc2nc3ccccc3nc2SCC(=O)Nc2ccccc2F)c1
54	CCCOc1ccc(NC(=O)COc2ccc(C)c(C)c2)c2cccnc12
55	COc1ccc(C2C(=O)N(C3CCC(C)CC3)CC(=O)N2C2CCCC2)cc1OC (stereo not given)
56	Cc1ccc(NC2=C(CC(=O)O)C(c3ccc(F)cc3)N(c3ccc(C)cc3)C2=O)cc1 (stereo not given)

screen / no.	49	50	51	52	53	54	55	56
2A firefly	-8.3%	-24.9%	112.7%[activator]	29.3%	1.4%	-5.8%	-3.1%	0.0%
2A Renilla	-2.8%	-18.1%	4.6%	22.3%	11.0%	-14.7%	8.9%	5.7%

57	Cc1cccc2nc(-c3ccc(Cl)s3)c(Nc3ccc4c(c3)OCCO4)n12
58	CCOCCc1nnc(NC(=O)C(=O)c2cc(C)n(-c3ccc(Cl)cc3)c2C)s1
59	CCc1ccc(C(=O)c2cn(CC(=O)Nc3ccc(C)c(C)c3)c3ccccc3c2=O)cc1
60	Cc1cc(C(=O)Nc2ccc(S(=O)(=O)N3CCCCCC3)cc2)no1
61	CCc1ccccc1N(C)C(=O)C1CCCN(c2ncnc3onc(-c4ccc(F)cc4)c23)C1 (stereo not given)
62	COc1ccc(NS(=O)(=O)c2ccc3c(c2)CCN3C(=O)CCC(=O)O)cc1Cl
63	NC(=O)C1CCN(C(=O)Cn2ccc3cc(Br)ccc32)CC1
64	Cc1sc2ncn(Cc3nc(-c4ccco4)no3)c(=O)c2c1C

screen / no.	57	58	59	60	61	62	63	64
2A firefly	131.9%[activator]	19.8%	-16.7%	39.4%[activator]	-9.6%	-6.0%	6.2%	0.0%
2A Renilla	12.4%	33.8%[activator]	11.1%	71.2%[activator]	-2.5%	49.5%[activator]	4.2%	2.0%

65	CC(=O)N1CCC(N(CCCN2CCC(C)CC2)C(=O)Nc2ccccc2C(F)(F)F)CC1
66	O=C(N/N=C/c1cccc(Cl)c1)C1CC1
67	CC(C)(C)NC(=O)CC(NC(=O)c1ccccc1Cl)c1ccccc1 (stereo not given)
68	N#C/C(=C\c1ccc(-c2ccc(Br)cc2)o1)c1ccccc1
69	COC(=O)c1ccc(CNC(=O)c2cccc(OC)c2)cc1
70	CCC(=O)Nc1ccccc1-c1nc2ccccc2n(C(C)C(=O)Nc2cccc(Cl)c2C)c1=O (stereo not given)
71	O=C(O)CCCNS(=O)(=O)c1ccc(C(=O)O)cc1
72	Cc1ccc(C(C)C)cc2c(C)ccc1-2

screen / no.	65	66	67	68	69	70	71	72
2A firefly	-8.1%	139.7%[activator]	-4.6%	49.5%[activator]	0.0%	-17.3%	-1.0%	0.3%[11.5 µM]
2A Renilla	-11.3%	1.6%	-7.6%[1.06 µM]	-0.8%	5.9%	12.1%	0.7%	-7.2%

73	O=C(O)COc1ccc(/C=C2/NC(=O)NC2=O)cc1Cl
74	CCOC(=O)N1CCC(NC(=O)c2cc3cc(F)ccc3[nH]2)CC1
75	Cc1cccc(N(C)c2nc3ccccc3c3nnc(C)n23)c1
76	CCC(=O)OC1(Cc2ccc(CC)cc2)CC(C)N(C)CC1C (stereo not given)
77	CC(C)CCNC(=O)c1cc2cc(S(=O)(=O)N3CCCCC3)ccc2n1C
78	COc1cc(NC(=O)C(=O)NCCN(C)C)ccc1N1CCCCS1(=O)=O
79	COc1ccc(C)cc1Nc1c2c(nc3ccccc13)CCC2
80	Brc1ccc(-c2nc3ccccn3c2Nc2ccc3c(c2)OCCO3)o1

screen / no.	73	74	75	76	77	78	79	80
2A firefly	5.6%	0.0%	1.9%	2.1%	-18.2%	-9.4%	-21.4%	53.0%[activator]
2A Renilla	1.6%	1.8%	29.1%	0.6%	-3.9%	-13.8%	-8.8%	21.9%

81	O=C(CSCc1cc(=O)c2ccccc2[nH]1)Nc1cccc(C(F)(F)F)c1
82	CCOc1ccc(/C=C(/C#N)c2nc3ccccc3[nH]2)cc1OC
83	Cc1ccccc1Nc1nn2c(=O)c3ccc(C(=O)N4CCCC(C)C4)cc3nc2s1 (stereo not given)
84	COC(=O)c1nc2n(n1)C(c1cccc(Br)c1)C(C(=O)Nc1ccc(C)cc1C)=C(C)N2 (stereo not given)
85	CN(C)C(=O)SN(C(=O)c1ccccc1)c1ccccc1
86	CCOC(=O)C1CCCN(C(=O)c2cc(-c3ccc(OC)cc3)n[nH]2)C1 (stereo not given)
87	Cc1c(C(=O)NC2=NCCS2)oc2ccccc12
88	CCOc1cc(/C=C(\C#N)C(=O)C(C)(C)C)ccc1OCc1ccccc1Cl
89	Cc1cc(C)cc(C(=O)NCCSc2c[nH]c3ccccc23)c1
90	Cc1ccc(Cn2c(Sc3nccc(C)n3)nc3c2c(=O)[nH]c(=O)n3C)cc1
91	CCn1nc(C(=O)OCC(=O)N2CCc3ccccc32)c2ccccc2c1=O

screen / no.	81	82	83	84	85	86	87	88	89	90	91
2A firefly	-3.8%	136.3%[activator]	-11.1%	-5.9%	140.3%[activator]	15.6%	0.0%	24.8%	-13.1%	18.8%	21.5%
2A Renilla	3.5%	88.6%[activator]	2.6%	-3.5%	9.2%	11.5%	11.3%	9.5%	6.4%	19.3%	26.7%

High-throughput results deposited in PubChem BioAssay by National Center for Advancing Translational Sciences (NCATS).
